PTAP TSG101 blk: qHTS Assay for Iinhibitors of HIV-1 Budding by Blocking the Interaction of PTAP/TSG101; Fluorescence polarization, FITC-PTAP peptide / Tsg101 binding; Potency, µM (series often up to 115 µM), inactives show at the highest dose activity change, negative = inhibition, actives largely listed as inhibitors; 340,000 tested, under 10 active; active means well fitted inhibition curve with a large enough effect in the main read-out, with a control signal flat, not every such curve was filed as active; inconclusive means small, poorly fitted or top-dose-only effect, or effect the other way, or a change in a side signal; inactive means no such curve, though single readings can be large or run the other way; further: potency means the concentration at half of the fitted maximal effect; % of control where 0% means no effect
Target sequence (Q99816 whole entry, looked up): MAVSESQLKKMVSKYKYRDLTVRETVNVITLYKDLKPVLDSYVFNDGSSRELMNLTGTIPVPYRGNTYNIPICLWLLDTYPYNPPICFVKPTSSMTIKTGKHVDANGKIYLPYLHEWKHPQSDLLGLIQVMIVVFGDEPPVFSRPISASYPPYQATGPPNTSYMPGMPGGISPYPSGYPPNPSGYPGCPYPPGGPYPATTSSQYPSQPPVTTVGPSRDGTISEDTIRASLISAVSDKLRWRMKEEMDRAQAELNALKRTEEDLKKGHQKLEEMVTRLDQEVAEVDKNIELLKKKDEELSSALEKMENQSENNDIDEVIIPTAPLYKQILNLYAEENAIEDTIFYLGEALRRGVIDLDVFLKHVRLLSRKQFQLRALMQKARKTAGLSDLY
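Fluorescence anisotropy tracks displacement of a FITC-tagged PTAP peptide (50 nM) from the Tsg101 binding domain (10 uM), following a 20 min room-temperature incubation at pH 7.5.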
Integrin act MD: qHTS for Activators of Integrin-Mediated Alleviation for Muscular Dystrophy. alpha7betagal myoblasts, beta-gal FDG fluorescence, 48 h. Potency, µM (highest dose often 38.3 µM), for the others: top-dose activation, usual class: activators. 0.064% of 350,000 active. AID 624291, 2012;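 further: potency means the concentration at half of the fitted maximal effect; 100% = response of the positive control SU9516; nearly all actives have a fitted effect of over 60% in size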
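alpha7betagal+/- myoblasts (passage 13, 250/well) treated 48 h at 37C with compounds at 1:260 dilution of DMSO stock. Lysed, then beta-galactosidase activity read as FDG fluorescence (ex 480/em 540) after 30 min, with pre-read for autofluorescence.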
ELG1 DNA repair: qHTS screen for small molecules that inhibit ELG1-dependent DNA repair in human embryonic kidney (HEK293T) cells expressing luciferase-tagged ELG1; HEK293T ELG1-luciferase reporter, luminescence, 16 h; DNA damage induced by 5-fluorouridine; Potency, µM (titrated, usually from 46.1 µM), for inactives: top-dose activity change, negative = inhibition, most hits filed as inhibitors; 2.3% of 330,000 active; AID 504467, 2011; further: potency means the concentration at half of the fitted maximal effect; on the % scale 0 is the no-effect control and ±100 the full control effect; nearly all actives have a fitted effect of over 55% in size
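Step one: seed 2,000 cells per well. Step two: pin-transfer compound or DMSO alongside 5-fluorouridine. Step three: incubate 16 hr, 37 °C, 5% CO2. Step four: add ONE-Glo, wait 30 min, read luminescence.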
AT treatment: qHTS Assay for Identifying a Potential Treatment of Ataxia-Telangiectasia; 0.19% of 320,000 active; […] A-T fibroblasts, KAP-1 phosphorylation AlphaLISA; neocarzinostatin DNA damage 30 min before lysis; Potency, µM (top dose mostly 57.5 µM), for the others: top-dose activation, most hits filed as activators; further: potency means the concentration at half of the fitted maximal effect; % of control where 0% means no effect; nearly all actives have a fitted effect of over 45% in size
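ATM-like activity read as KAP-1 phosphorylation via AlphaLISA donor/acceptor antibody pairs after lysis and 6 hr at 25C. Cells were ATM-null patient fibroblasts ([…], hTERT), dosed 60 min, then exposed to the DSB inducer NCS for 30 min.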
TCR act: Activators of T cell receptors: qHTS campaign | 330,000 tested, under 10 active | AID 504894, 2011 | primary human leukocytes, anti-CD3, IL-2 HTRF, 48 h | Potency, µM (doses to about 9.22 µM), for inactives: at the top dose activation of IL-2 secretion, hits mostly activators; further: % of control where 0% means no effect
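1) Mix primary human leukocytes, a-CD3 beads and compound. 2) Incubate 48 hr. 3) Add HTRF IL-2 reagents (a-IL-2-K, a-IL-2-d2).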
Starred values were filed as active, the others as inactive; ? = inconclusive; · = no result given; [ ] = another dose, or the depositor's remark. Unless noted, the call rests on the fitted dose curve; in most records, active means well fitted curve in the direction sought with a large enough effect; inconclusive means small, poorly fitted or top-dose-only effect, or another doubt; inactive means no such curve, though single readings can be large; an effect the other way counts as inactive or inconclusive. An excerpt. The share of hits here may be higher or lower than overall.

#	SMILES	PTAP TSG101 blk	AT treatment	ELG1 DNA repair	TCR act	Integrin act MD
1	O=c1c2ccccc2[nH]c(=S)n1-c1ccc2c(c1)OCCO2	-2%	5%	?	14%	-17%
2	C[C@]12CCC3C(CC[C@H]4C[C@@H](O)CC[C@]34C)[C@H]1C=CC2=O (some centres not stated)	-4%	9%	?	3%	-48%[inhibitor]
3	CCOC(=O)c1cncn1C(C)c1ccccc1 (configuration not stated)	-3%	5%	9%	-2%	·
4	C[N+](C)(C)CC(=O)O	-5%	4%	-8%	-5%	·
5	COc1ccc(C(=O)N2CCCC2=O)cc1	-5%	-2%	9%	7%	·
6	O=c1c2ccccc2nc(-c2ccc(-c3ccccc3)cc2)n1-c1ccncc1	-14%	2%	?	-1%	-26%
7	Clc1ccc(C[n+]2c(-c3ccccc3)cc(-c3ccccc3)cc2-c2ccccc2)cc1	-2%	9%	?	2%	-45%
8	CC(C)(C)c1ccccc1O	-2%	6%	7%	-4%	·
9	CC12CCC(=O)C=C1CCC1C2CCC2(C)C(O)CCC12 (configuration not stated)	-1%	1%	-3%	-2%	12%
10	Nc1ccc2c(c1)Cc1ccccc1-2	-4%	-7%	?	-1%[46.1 µM]	12%
11	O=C(Nc1ccc(F)cc1)c1c(O)c2c(n(Cc3ccccc3)c1=O)CCCC2	-3%	8%	12%	-1%	?
12	O=C(C1CC(c2ccc(F)cc2)=NO1)N1CCC2(CC1)OCCO2 (configuration not stated)	4%	9%	?	-2%	9%
13	Nc1c(Cl)cc([N+](=O)[O-])cc1Cl	-7%	3%	10%	0%	0%
14	CCC1(C2=NCCN2)Cc2ccccc2O1 (configuration not stated)	-5%	4%	7%	1%	·
15	O=c1[nH]c2ccccc2n1CCCN1CCC(n2c(=O)[nH]c3cc(Cl)ccc32)CC1	1%	0%	-17%	3%	·
16	NNC(N)=O	-4%	8%	19%	5%	·
17	Cc1ccc(-c2ccc(=O)n(CCC(=O)N3CCC4(CC3)OCCO4)n2)cc1	-3%	0%	?	1%	9%
18	CCCCCn1c(=O)c(C(=O)Nc2ccccc2Cl)c(O)c2ccccc21	-2%	-12%	41%	·	25%
19	CN(C)C1C(=O)C(C(N)=O)=C(O)C2(O)C(=O)C3=C(O)c4c(O)cccc4C(C)(O)C3CC12 (configuration not stated)	-7%	4%	-3%	2%	·
20	CNCCC(Oc1ccc(C(F)(F)F)cc1)c1ccccc1 (configuration not stated)	-2%	14%	-24%	11%	·
21	O=C1CN=C(c2ccccc2)c2cc([N+](=O)[O-])ccc2N1	-1%	-2%	6%	3%	·
22	CC(=O)N1CCN(c2ccc(OC[C@H]3CO[C@](Cn4ccnc4)(c4ccc(Cl)cc4Cl)O3)cc2)CC1	-1%	-8%	?	-8%	·
23	C[C@]12CC[C@H](O)C[C@H]1CC[C@@H]1[C@@H]2CC[C@]2(C)C(=O)CC[C@@H]12	-1%	6%	1%	10%	2%
24	CCCCCCCCC(=O)NCc1ccc(O)c(OC)c1	-5%	8%	-19%	3%	·
25	CNCC[C@@H](Oc1ccc(C(F)(F)F)cc1)c1ccccc1	-5%	3%	-9%	2%	·
26	[Cl][Pt+2][Cl].[NH-]C1CCCCC1[NH-] (configuration not stated)	1%	2%	26%	-1%	·

Entries from the list above that contain an NH in an aromatic ring, in the order listed:
#	SMILES	PTAP TSG101 blk	AT treatment	ELG1 DNA repair	TCR act	Integrin act MD
1	O=c1c2ccccc2[nH]c(=S)n1-c1ccc2c(c1)OCCO2	-2%	5%	?	14%	-17%
15	O=c1[nH]c2ccccc2n1CCCN1CCC(n2c(=O)[nH]c3cc(Cl)ccc32)CC1	1%	0%	-17%	3%	·

Pulled one by one from the entries so far:
#	SMILES	PTAP TSG101 blk	AT treatment	ELG1 DNA repair	TCR act	Integrin act MD
25	CNCC[C@@H](Oc1ccc(C(F)(F)F)cc1)c1ccccc1	-5%	3%	-9%	2%	·
19	CN(C)C1C(=O)C(C(N)=O)=C(O)C2(O)C(=O)C3=C(O)c4c(O)cccc4C(C)(O)C3CC12 (configuration not stated)	-7%	4%	-3%	2%	·
13	Nc1c(Cl)cc([N+](=O)[O-])cc1Cl	-7%	3%	10%	0%	0%

Look-ups from above:
`CC(C)(C)c1ccccc1O` | TCR act: -4%
`COc1ccc(C(=O)N2CCCC2=O)cc1` | TCR act: 7%

In the list so far, these contain a nitro group on carbon:
#	SMILES	PTAP TSG101 blk	AT treatment	ELG1 DNA repair	TCR act	Integrin act MD
13	Nc1c(Cl)cc([N+](=O)[O-])cc1Cl	-7%	3%	10%	0%	0%
21	O=C1CN=C(c2ccccc2)c2cc([N+](=O)[O-])ccc2N1	-1%	-2%	6%	3%	·
